# Cruzain Triton: qHTS Assay for Promiscuous and Specific Inhibitors of Cruzain (with detergent); actives 0.43% (n = 200,000); purified cruzain, Z-FR-AMC fluorescence, 0.01% Triton; Potency, µM, without a hit: max response, negative = inhibition, usual class: inhibitors; Cruzipain (Trypanosoma cruzi), P25779;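 also: plate controls were neutral wells for no effect and buffer without enzyme for full effect; nearly all actives have a fitted effect of over 40% in size; top concentration of the series not given in the record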
# Target sequence (P25779 123-467 limits assumed): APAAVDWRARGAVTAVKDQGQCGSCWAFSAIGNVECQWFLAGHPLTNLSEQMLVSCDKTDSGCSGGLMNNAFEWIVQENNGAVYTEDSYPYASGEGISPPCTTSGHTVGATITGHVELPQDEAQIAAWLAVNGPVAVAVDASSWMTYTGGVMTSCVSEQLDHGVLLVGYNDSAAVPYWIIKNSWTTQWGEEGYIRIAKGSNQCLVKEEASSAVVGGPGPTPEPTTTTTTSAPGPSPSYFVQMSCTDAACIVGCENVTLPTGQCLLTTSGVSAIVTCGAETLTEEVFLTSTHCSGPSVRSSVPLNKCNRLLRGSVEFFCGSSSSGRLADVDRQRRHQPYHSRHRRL
#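 Cruzain (1.5 nM) preincubated 15 min at RT with compound in 100 mM sodium acetate pH 5.5, 5 mM DTT, 0.01% Triton X-100. Reaction started with 2 uM Z-FR-AMC; AMC fluorescence (ex 360/em 450 nm) change over 60 s gave rate.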
# RE007 growth inh: qHTS Assay for Inhibitors of the HIV-1 protein Vpr | Potency, µM (titrated, usually from 92.2 µM), for inactives: top-dose activity change, negative = less growth | AID 651644, 2012 | S. pombe RE007 Vpr strain, BacTiter-Glo ATP luminescence, 24 h; control for the full effect not named in the record | actives 0.21% (n = 360,000); active = well fitted falling curve with a large enough effect; inconclusive = small, poorly fitted or top-dose-only effect; inactive = no such curve, though single readings can be large or run the other way;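 also: % is scaled to controls: 0 for no effect and ±100 for the full control effect; nearly all actives have a fitted effect of over 50% in size; the assay follows cell death caused by Vpr and the record does not say whether a fall means rescue or toxicity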
#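 Fission yeast RE007 carrying one integrated HIV-1 vpr copy, seeded at OD 0.01 in PMG+AL medium with 23 nL pinned compound. Grown 24 h at 30 degrees; viability read by BacTiter-Glo luminescence after 5 min.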
# NS1 function inh: qHTS Assay for Inhibitors of Influenza NS1 Protein Function. S. cerevisiae slowed by influenza A NS1, growth recovery by OD600. Potency, µM (top dose mostly 46.1 µM), without a hit: at the highest dose activity, positive = more growth. actives 0.4% (n = 270,000); active means well fitted rising curve with a large enough effect; inconclusive means small, poorly fitted or top-dose-only effect; inactive means no such curve, though single readings can be large or run the other way; also: nearly all actives have a fitted effect of over 50% in size
#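 Recovery from NS1-induced slow growth read by OD600 in budding yeast switched to galactose assay medium (pH 6.0, -URA) at 1:100 dilution. Compound 23 nl per well; the matching strain lacking NS1 serves as control.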
# SARS PLpro yeast: qHTS of Yeast-based Assay for SARS-CoV PLP; Potency, µM (doses to about 32.9 µM), for the others: top-dose activity, positive = growth rescue; S. cerevisiae expressing SARS-CoV PLpro, growth rescue; control for the full effect not named in the record; actives 0.19% (n = 330,000); active means well fitted rising curve with a large enough effect; inconclusive means small, poorly fitted or top-dose-only effect; inactive means no such curve, though single readings can be large or run the other way; also: 0% is about no effect; nearly all actives have a fitted effect of over 55% in size; growth read by luminescence after 48 h
# Marburg entry inh: qHTS for inhibitors of binding or entry into cells for Marburg Virus; Marburg virus pseudotyped entry inhibition, cell reporter; control for the full effect not named in the record; about a third of the inactives were read at about 46 µM; Potency, µM (highest dose often 37.8 µM), without a hit: at the top dose activity change, negative = inhibition, actives largely listed as inhibitors; actives 1.8% (n = 300,000); AID 540276, 2011; active = well fitted inhibition curve with a large enough effect; inconclusive = small, poorly fitted or top-dose-only effect, or effect the other way; inactive = flat fitted curve, though single readings scatter; tested in HEK293 cells; about a fifth of its hits are not listed in these tables; also: % is scaled to controls: 0 for no effect and ±100 for the full control effect; luciferase read-out
# Cruzain noTriton: qHTS Assay for Promiscuous and Specific Inhibitors of Cruzain (without detergent); Cruzipain (Trypanosoma cruzi), P25779; purified cruzain, Z-FR-AMC fluorescence, no detergent; Potency, µM, for the others: max response, negative = inhibition, usual class: inhibitors; actives 2.3% (n = 200,000); AID 1476, 2009;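 also: plate controls were enzyme without inhibitor for no effect and buffer without enzyme for full effect; nearly all actives have a fitted effect of over 40% in size; top concentration of the series not given in the record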
#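 Detergent-free condition (0.00005% Triton X-100) in acetate buffer pH 5.5 with DTT. 1.5 nM enzyme and compound were pre-mixed 15 min, then 2 uM Z-FR-AMC substrate added; reaction progress from fluorescence change between first and third reads (60 s).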
# Lassa entry inh: qHTS for Inhibitors of binding or entry into cells for Lassa Virus. Lassa virus pseudotype entry inhibition, cell reporter; control for the full effect not named in the record. Potency, µM (top dose mostly 37.9 µM), without a hit: at the top dose activity change, negative = inhibition, most hits filed as inhibitors. actives 1.2% (n = 300,000). AID 540256, 2011; active means well fitted inhibition curve with a large enough effect; inconclusive means small, poorly fitted or top-dose-only effect, or effect the other way; inactive means flat fitted curve, though single readings scatter; tested in HEK293 cells; also: % is scaled to controls: 0 for no effect and ±100 for the full control effect; nearly all actives have a fitted effect of over 50% in size; luciferase read-out
# 2A StopGo: High Throughput Screening for Foot and Mouth Disease Virus Antivirals; human cells with a luciferase reporter of 2A StopGo recoding; control for the full effect not named in the record; Potency, µM (series often up to 57.9 µM), without a hit: at the top dose signal change, negative = less light; actives 1.2% (n = 410,000); AID 1159524, 2015; active = well fitted falling curve with a large enough effect; inconclusive = small, poorly fitted or top-dose-only effect; inactive = no such curve, though single readings can be large or run the other way; tested in HEK293T cells; also: % is scaled to controls: 0 for no effect and ±100 for the full control effect; nearly all actives have a fitted effect of over 45% in size; luciferase light after 4 h
# * hit, by the source's call; ? = inconclusive; · = no result given; & = joins results of further samples; [ ] = dose if it differs, or a comment. Unless noted, calls follow the shape of the dose curve; as a rule, active = well fitted curve in the direction sought with a large enough effect; inconclusive = small, poorly fitted or top-dose-only effect, or another doubt; inactive = no such curve, though single readings can be large; an effect the other way counts as inactive or inconclusive. Potency is read from the fitted curve at half-maximal effect.
SMILES,Cruzain Triton,RE007 growth inh,NS1 function inh,SARS PLpro yeast,Marburg entry inh,Cruzain noTriton,Lassa entry inh,2A StopGo
Cc1ccc(C(=O)c2sc(Nc3ccccc3F)c(S(=O)(=O)c3ccccc3)c2N)c(C)c1,-2.6%,·,·,·,·,6.3µM*,?,10%
COc1ccc2oc(=O)c(C(=O)NCC3CCCO3)cc2c1 (stereo not drawn),0.4%,-2%,-5%,9%,0%,5%,4%,64%[activator]
Cc1ccc(-c2noc(N=O)c2NO)cc1,·,1%,-49%,0%,?,·,?,-14%
COc1cccc2sc(NC(=O)c3ccc(Br)s3)nc12,3.0%,0%,-3%,-6%,5%,-26%,?,-22%
O=C(c1ccc(C(F)(F)F)cc1)C1CCCN(Cc2ccncc2)C1 (stereo not drawn),·,-5%,-1%,0%,-29%[46.1 µM],·,·,?
CC1CCN(C(=S)c2cccc([N+](=O)[O-])c2)CC1,·,-14%,5%,1%,2%[46.1 µM],·,-26%,15%
COc1cccc(C(=O)CSc2nnc(-c3ccco3)n2CC2CCCO2)c1 (stereo not drawn),-2.6%,36%,-4%,-1%,-4%[46.1 µM],-3%,1%,-9%
COc1ccccc1CNS(=O)(=O)c1c(C)nc2sccn2c1=O,-0.2%,4%,22%,0%,·,4%,-2%[46.1 µM],2%&-18%
COC(=O)CCC(=O)NC1CC(C)(C)Cc2c1cnn2-c1ccc(F)cc1 (stereo not drawn),·,10%,4%,9%,6%[46.1 µM],·,-16%[46.1 µM],-21%
N#CC1(NC(=O)COC(=O)c2cc(O)c3ccccc3c2O)CCCCC1,·,?,·,2%,?,·,27%,-21%
Fc1ccc(NC(=S)Nc2cc(-c3ccccc3)[nH]n2)cc1Cl,·,?,1%,-3%,?,·,?,-13%
CCOC(=O)N1CCC(NC(=O)C2CCCN2C(=O)OCc2ccccc2)CC1 (stereo not drawn),1.8%,4%,-1%,0%,15%&0%,0%,-5%,-26%
CC1=C(C(=O)OCC2CCCO2)C(c2ccncc2)C2=C(CCCC2=O)N1 (stereo not drawn),0.0%,0%,1%,6%,?,-10%,1%,-9%
CCOC(=O)c1cc(-c2ccc(/C=C3/C(=O)NC(=O)C(C#N)=C3C)o2)ccc1Cl,?,?,19%,?,5%,?,1%,-6%
O=C(CSc1nc2ccccc2[nH]1)N1CCN(c2ccccc2)CC1,-1.1%,-3%,-68%,6%,16%,-21%,?,-9%
CC(=O)Nc1ccc(OCc2ccc(S(=O)(=O)Cc3ccccc3)cc2)cc1,·,4%,2%,0%,·,·,·,0%
CC(O)CNc1nc2ccccc2n1CC(=O)N1CCN(Cc2ccccc2)CC1 (stereo not drawn),·,5%,·,0%,10%[46.1 µM],·,-1%[46.1 µM],-2%
O=[N+]([O-])CC(c1ccc(F)cc1)c1c[nH]c2ccccc12 (stereo not drawn),·,-18%,-49%,-8%,·,·,·,-27%
Cc1csc2c(N(C)CCO)ncnc12,·,3%,6%,0%,10%,·,6%,42%[activator]
N#C/C(=C/c1cccc(O)c1)C(=O)NCc1ccc(Cl)cc1,·,12%,-57%,-8%,-19%[46.1 µM],·,-26%,?
CCn1c(=O)cc(OCC(=O)Nc2ccccc2C#N)c2ccccc21,-1.7%,-9%,-71%,-10%,·,-3%,·,-14%
COC(=O)c1ccc(C2c3c(oc4ccc(C)cc4c3=O)C(=O)N2Cc2ccc3c(c2)OCO3)cc1 (stereo not drawn),-0.2%,·,·,·,-3%[46.1 µM],10%,12%[46.1 µM],9%
Cc1ccc(S(=O)(=O)N2CCCN(S(=O)(=O)c3ccc(C)cc3)CC2)cc1,-0.2%,-1%,0%,0%,9%,-2%,13%,?
CCOc1ccc(CN2CCNC(=O)C2CC(=O)NCCc2ccccn2)cc1 (stereo not drawn),·,7%,1%,-1%,6%[46.1 µM],·,18%[46.1 µM],-1%
CN(C)c1ccc(P(=O)(Nc2ccccc2)N2CCOCC2)c(NC(=O)c2cccs2)c1 (stereo not drawn),-12%,0%,14%,14%,10%,?,3%,-9%
CCOC(=O)N1CCN(S(=O)(=O)c2c(C)[nH]c(=O)[nH]c2=O)CC1,7.0%,-15%,-6%,5%,-11%,15%,3%,-8%
O=C(O)c1ccccc1-c1ccccc1C(=O)Nc1ccc2c(c1)CCC2,·,-1%,?,-1%,?,·,7%,-12%
Nc1nnnn1/N=C/c1ccc(N2CCCCC2)c([N+](=O)[O-])c1,-9.0%,-3%,3%,-16%,?,0%,27%,-14%
O=C(NC(=S)NNS(=O)(=O)c1ccccc1)c1cccnc1,·,1%,3%,4%,26%[46.1 µM],·,4%[46.1 µM],-18%
CC1CCCCN1S(=O)(=O)c1ccc(C(=O)Nc2nnc(-c3ccncc3)o2)cc1 (stereo not drawn),·,-2%,·,1%,?,·,?,-19%
Cc1ncsc1CCOC(=O)C12CC3CC(CC(C3)C1)C2,-4.3%,-4%,-90%,6%,-27%,9%,?,-3%
CCOC(=O)N1CCC(Nc2c(-c3ccc(C)cc3)c(=O)c2=O)CC1,-11%,-12%,-3%,-6%,-2%,-6%,?,-24%
CCC(=O)N1c2ccccc2CC1C(=O)NCCc1ccccc1OC (stereo not drawn),0.7%,·,·,·,·,1%,?,-10%
O=C(NCc1ccco1)c1ccc(COCC(F)(F)F)cc1,2.6%,8%,-86%,-8%,-6%,-1%,2%,16%
CCCCCCC#Cc1cncc(C(=O)NNC(=O)Nc2cc(Cl)cc(Cl)c2)c1,·,-14%,-2%,1%,?,·,-10%,0%
CN1CCN(S(=O)(=O)c2cccc(C(=O)Oc3ccc(C(C)(C)C)cc3)c2)CC1,·,-11%,·,1%,-10%,·,-18%,?
COc1ccc(OC)c(S(=O)(=O)N2CCN(C(=O)CCc3ccccc3)CC2)c1,·,2%,·,·,17%,·,1%,-4%
O=C(Nc1ccc([N+](=O)[O-])cc1)Nc1ccc(OC(F)F)c(Cl)c1,-14%,-6%,-24%,-123%,?,-1%,15µM*,25µM*
COc1ccc(Cl)cc1NC(=O)CCCN1C(=O)C(c2ccccc2)Oc2cccnc21 (stereo not drawn),-2.8%,·,·,·,·,17%,-2%[46.1 µM],-16%
Cc1ccccc1NC(=O)c1cccc(N2C(=O)C3C4CC(C(Br)C4Br)C3C2=O)c1 (stereo not drawn),·,12%,18%,2%,·,·,·,-13%
CC(O)CNc1nc2c(c(=O)n(C)c(=O)n2C)n1Cc1cccc(Br)c1 (stereo not drawn),4.7%,4%,-4%,-17%,?,2%,?,·
CCN(CC(=O)Nc1c(F)cccc1F)C(=O)C1CCN(C(=O)Nc2ccccc2)CC1,·,6%,·,-1%,-11%,·,15%,-13%
Cc1cccc(OCC(=O)Nc2ccc3c(C)cc(=O)oc3c2)c1,-6.0%,-4%,9%,-2%,8%,10%,24%,-13%
O=C(O)c1c2c(nc3ccc(Cl)cc13)CCC2,·,-10%,-3%,7%,19%,·,5%,-17%
CC(Sc1n[nH]c(N)n1)C(=O)Nc1cccc2ccccc12 (stereo not drawn),·,18%,·,-1%,-18%,·,16%,-13%
COCCCNC(=O)CNC(=O)c1nn(-c2ccc(OC)cc2)c(=O)c2ccccc12,·,-2%,6%,-1%,4%[46.1 µM],·,17%[46.1 µM],0%
CCCCCCn1nnc2sc(-c3ccccc3)cc2c1=O,4.1%,·,·,·,12%[46.1 µM],-3%,13%[46.1 µM],10%
Clc1ccc(-c2cc(CN3CCCCC3)no2)cc1Cl,·,-10%,2%,0%,?,·,29%[46.1 µM],17%
Cc1ccc(-c2ccc(/C=N/n3cnnc3)o2)cc1Cl,-21%,-11%,-10%,?,-14%,-2%,2%,-10%
CCS(=O)(=O)N1CCC2(CC1)OCCN2S(=O)(=O)c1ccc(OC)cc1,·,4%,·,0%,16%,·,-7%,1%
COc1cc(C2C(C#N)=C(C)NC3=C2C(=O)c2ccccc23)cc(OC)c1OC (stereo not drawn),-9.9%,13%,-58%,1%,?,13%,?,·
Cc1ccc(-n2c(=O)c3oc4ccccc4c3n(CC(=O)Nc3ccccc3)c2=O)cc1C,-5.7%,·,·,·,·,-29%,?,7%
CC(Sc1nncs1)C(=O)Nc1ccc(Cl)cn1 (stereo not drawn),-2.3%,1%,-1%,17%,?,-2%,0%,-3%
Cn1nc(C(=O)NCc2ccccn2)c2ccccc2c1=O,5.0%,?,0%,-1%,?,-6%,8%,48%[activator]
O=[N+]([O-])c1cccc(Cl)c1N1CCOCC1,-2.9%,26%,9%,-25%,5%,-1%,11%,-15%
COc1ccccc1N(CN1CCCC1=O)C(=O)c1c(F)cccc1F,2.1%,14%,-1%,1%,-16%,3%,1%,10%
COc1cccc(NC(=O)C(=O)c2cn(CC(=O)N3CCOCC3)c3ccccc23)c1,·,-8%,19%,0%,·,·,·,10%
O=C(N/N=C/c1ccc(N2CCOCC2)cc1)c1cccs1,·,-19%,·,-1%,-19%[46.1 µM],·,-3%,-13%
CCCCC(CC)CNC(=O)c1ccc2c(c1)OCO2 (stereo not drawn),-3.2%,?,-47%,-10%,4%,7%,17%,·

# Grouped by structure: those above with bromine.
SMILES,Cruzain Triton,RE007 growth inh,NS1 function inh,SARS PLpro yeast,Marburg entry inh,Cruzain noTriton,Lassa entry inh,2A StopGo
COc1cccc2sc(NC(=O)c3ccc(Br)s3)nc12,3.0%,0%,-3%,-6%,5%,-26%,?,-22%
Cc1ccccc1NC(=O)c1cccc(N2C(=O)C3C4CC(C(Br)C4Br)C3C2=O)c1 (stereo not drawn),·,12%,18%,2%,·,·,·,-13%
CC(O)CNc1nc2c(c(=O)n(C)c(=O)n2C)n1Cc1cccc(Br)c1 (stereo not drawn),4.7%,4%,-4%,-17%,?,2%,?,·
